Screening data (PubChem BioAssay)
GALR2 agonist: GALR2 receptor agonists, primary screen, cell-based | activation, %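 (tested at 5 µM)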 | AID 803, 2007 | actives 0.48% (n = 140,000) | GALR2-expressing cells, agonist activation read-out | Galanin receptor type 2 (Homo sapiens), O43603;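 active means above mean plus 3 SD of all compounds, about 5% in these data, not always enough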;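 further: 0% = vehicle buffer wells and 100% = reference agonist at full effect; tested in CHO reporter cells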
Target sequence (O43603 whole entry, looked up): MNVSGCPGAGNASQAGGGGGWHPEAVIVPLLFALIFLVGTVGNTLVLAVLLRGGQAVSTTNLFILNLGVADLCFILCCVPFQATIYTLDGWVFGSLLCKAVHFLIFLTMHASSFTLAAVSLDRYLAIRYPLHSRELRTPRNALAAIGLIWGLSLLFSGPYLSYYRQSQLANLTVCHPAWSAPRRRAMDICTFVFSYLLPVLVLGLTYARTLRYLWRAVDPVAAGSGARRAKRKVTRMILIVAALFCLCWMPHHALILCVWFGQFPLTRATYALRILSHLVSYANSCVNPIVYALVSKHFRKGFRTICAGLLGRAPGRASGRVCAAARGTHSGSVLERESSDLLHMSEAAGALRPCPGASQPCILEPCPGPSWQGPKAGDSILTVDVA
HSV replic up: enhancers of HSV replication in host cells, fold increase, host cell viability; actives 0.005% (n = 220,000); HSV replication augmentation in cells; maximum fold increase;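 active means peak rise of 1.5-fold or more in the series; tested in PC3 cells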;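 further: first round at 10 µM; read as green reporter fluorescence; hits show the peak of a series up to 25 µM; 1 = signal of infected wells without compound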
RGS16-Gao: modulators of RGS16 binding to Galphao, primary screen, biochemical, human proteins, multiplexed bead flow cytometry; binding response (% of control), % at 10 µM; bead-based flow cytometry RGS16-Galphao binding, fluorescence; actives lie on both sides; actives 0.38% (n = 220,000);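 active means below 25% or above 175%, edge rows of some plates excepted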;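 further: Galphao activated by GDP with aluminum fluoride before binding; 100% = wells without compound and 0% = beads without RGS; some results beyond the cut were filed as inactive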
Target sequence (O15492 whole entry, looked up): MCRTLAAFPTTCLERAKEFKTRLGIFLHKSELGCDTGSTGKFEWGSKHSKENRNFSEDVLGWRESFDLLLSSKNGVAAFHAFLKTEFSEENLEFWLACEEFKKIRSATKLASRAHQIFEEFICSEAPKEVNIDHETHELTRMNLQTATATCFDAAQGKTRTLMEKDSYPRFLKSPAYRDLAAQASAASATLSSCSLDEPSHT
Target sequence (P09471 whole entry, looked up): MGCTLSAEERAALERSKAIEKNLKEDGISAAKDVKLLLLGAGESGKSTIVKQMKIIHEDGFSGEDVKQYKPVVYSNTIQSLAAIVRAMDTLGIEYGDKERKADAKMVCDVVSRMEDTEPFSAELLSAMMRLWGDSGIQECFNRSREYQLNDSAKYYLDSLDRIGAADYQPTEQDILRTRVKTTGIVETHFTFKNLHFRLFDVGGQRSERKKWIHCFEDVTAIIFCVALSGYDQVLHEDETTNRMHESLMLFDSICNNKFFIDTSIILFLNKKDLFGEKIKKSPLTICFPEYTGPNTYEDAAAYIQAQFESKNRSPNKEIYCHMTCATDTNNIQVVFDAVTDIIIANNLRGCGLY
PKD1 inh: inhibitors of human PKD1 kinase, biochemical, fluorescence polarization. PKD1 kinase fluorescence polarization assay. inhibition, %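 (about 10 µM by stock and volumes)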. actives 0.056% (n = 200,000). AID 797, 2007;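 active means inhibition of 50% or more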;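 further: controls were vehicle for no effect and a reference inhibitor for full effect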
INS promoter inh: inhibitors of insulin promoter-driven GFP, primary screen, imaging, TRM-6 cells (human fetal islet line), eGFP reporter, cell count. reporter expression induced with tamoxifen. inhibition, % at 2 µM. actives 0.9% (n = 130,000);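 active means inhibition above the mean plus 3 SD, with well images judged a real hit on visual review, cut at about 60% in these data, passing the limit was not always enough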
INS promoter inh cell count: also measured in INS promoter inh; calls as there; normalized cell count, %; measured here: cell count, toxicity; reference of the scale not given here;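 cells exposed to compound for 48 h; stained nuclei by imaging scaled within each plate; lower means fewer cells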
HSV replic up primary fold: second read-out of HSV replic up, no call of its own (marks repeat the call); fold increase; compound at 10 µM; measured here: primary screen fold increase 10 uM; tested in PC3 cells;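 GFP signal in the first replicate; 1 = infected wells without compound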
* marks the source's active call; other numbers are inactive results. Compounds were not picked by outcome; 1.2% or so of the library scored in one or more.

What do the screens show for `COc1ccc(OC)c(CC(NC(C)=O)C(=O)NC2CCN(c3nc(OC)nc(OC)n3)CC2)c1` (stereo not given)?
HSV replic up: inactive; RGS16-Gao: 104; PKD1 inh: -1; HSV replic up primary fold: 0.97

What do the screens show for `NC(=O)c1ccc[n+](Cc2cccc3ccccc23)c1`?
GALR2 agonist: 1.4; HSV replic up: inactive; RGS16-Gao: 97; PKD1 inh: -5; INS promoter inh: -38; INS promoter inh cell count: 91; HSV replic up primary fold: 0.94

What do the screens show for `Nc1nc(N)c2cc(Sc3ccc4ccccc4c3)ccc2n1`?
HSV replic up: inactive; RGS16-Gao: 112; HSV replic up primary fold: 0.58

How did CCCCCCn1c(SCCOC)nc2c1c(=O)[nH]c(=O)n2C do in these assays?
HSV replic up: inactive; RGS16-Gao: 102; HSV replic up primary fold: 0.83

How did O=C(Nc1cccc(-c2csc(Nc3cccc(C(F)(F)F)c3)n2)c1)c1cc([N+](=O)[O-])cc(C(F)(F)F)c1 do in these assays?
HSV replic up: inactive; RGS16-Gao: 99; HSV replic up primary fold: 0.59

How did O=C(Nc1cccn(Cc2c(Cl)cccc2Cl)c1=O)c1ccc(Cl)cc1Cl do in these assays?
GALR2 agonist: -2.6; HSV replic up: inactive; RGS16-Gao: 93; PKD1 inh: -12; INS promoter inh: -257; INS promoter inh cell count: 119; HSV replic up primary fold: 0.78

How did Cc1ccc(CN2C(=O)CNC2=S)cc1 do in these assays?
HSV replic up: inactive; RGS16-Gao: 99; PKD1 inh: -5; HSV replic up primary fold: 1

Results for COC(=O)COc1cccc(NC(=O)c2cc(OC)cc(OC)c2)c1 ?
HSV replic up: inactive; RGS16-Gao: 97; PKD1 inh: -2; HSV replic up primary fold: 0.93

Results for C=CCNC(=O)C1CC(=O)N(c2ccc(OCC(=O)Nc3ccc(Cl)c(C(F)(F)F)c3)cc2)C1 (stereo not given) ?
GALR2 agonist: -0.2; HSV replic up: inactive; RGS16-Gao: 399; PKD1 inh: -5; INS promoter inh: 13; INS promoter inh cell count: 134; HSV replic up primary fold: 0.95

What do the screens show for `CC1=C(C(=O)OCc2ccc3c(c2)OCO3)C(c2ccccc2OCc2ccccc2)NC(=O)N1` (stereo not given)?
GALR2 agonist: -0.4; HSV replic up: inactive; RGS16-Gao: 99; PKD1 inh: -4; INS promoter inh: 3; INS promoter inh cell count: 126; HSV replic up primary fold: 0.73

Results for COc1ccc(N(CC(=O)Nc2ccc(S(=O)(=O)N3CCCC3)cc2)S(C)(=O)=O)cc1OC ?
GALR2 agonist: -0.8; HSV replic up: inactive; RGS16-Gao: 105; PKD1 inh: 3; INS promoter inh: 9; INS promoter inh cell count: 104; HSV replic up primary fold: 0.75

Results for CC(=O)c1cccc(NC(=O)c2onc(C)c2Cl)c1 ?
GALR2 agonist: -2.3; HSV replic up: inactive; RGS16-Gao: 102; PKD1 inh: -6; HSV replic up primary fold: 0.95

How did Cc1cc(C)nc(SCC(=O)Nc2ccc(S(=O)(=O)Nc3nccs3)cc2)n1 do in these assays?
GALR2 agonist: -0.4; HSV replic up: inactive; RGS16-Gao: 81; PKD1 inh: -13; INS promoter inh: -13; INS promoter inh cell count: 190; HSV replic up primary fold: 0.8

How did COc1ccc(NC(=O)CC2SC(=Nc3ccccc3)NC2=O)cc1 (stereo not given) do in these assays?
GALR2 agonist: -0.4; HSV replic up: inactive; RGS16-Gao: 106; PKD1 inh: -9; INS promoter inh: 16; INS promoter inh cell count: 49; HSV replic up primary fold: 0.84

How did O=c1c2c3n(c(=O)nc2[nH]n1-c1ccccc1)CCCCC3 do in these assays?
GALR2 agonist: -2.5; HSV replic up: inactive; RGS16-Gao: 98; PKD1 inh: -5; INS promoter inh: 50; INS promoter inh cell count: 77; HSV replic up primary fold: 0.98

Results for Cc1nn(C)cc1C(=O)NNC(=S)Nc1ccccc1 ?
GALR2 agonist: -1.0; HSV replic up: inactive; RGS16-Gao: 117; PKD1 inh: -8; HSV replic up primary fold: 1

How did Cc1ccc(NC(=S)N/C(=N/S(=O)(=O)c2ccccc2)c2ccccc2)cc1 do in these assays?
GALR2 agonist: -1.3; HSV replic up: inactive; RGS16-Gao: 112; PKD1 inh: 3; INS promoter inh: 6; INS promoter inh cell count: 120; HSV replic up primary fold: 0.87

How did COc1ccccc1C(=O)N1CCCC1(C#N)c1ccccc1 (stereo not given) do in these assays?
GALR2 agonist: -0.6; HSV replic up: inactive; RGS16-Gao: 102; PKD1 inh: -3; INS promoter inh: -32; INS promoter inh cell count: 92; HSV replic up primary fold: 1

How did COc1ccc(S(N)(=O)=O)cc1C(=O)NCCCN1CCN(c2ccccc2OC)CC1 do in these assays?
GALR2 agonist: -1.9; HSV replic up: inactive; RGS16-Gao: 99; PKD1 inh: -11; INS promoter inh: 50; INS promoter inh cell count: 78; HSV replic up primary fold: 1

Results for CC(Sc1nnc(-c2ccccc2)c(-c2ccccc2)n1)C(=O)N1CCc2ccccc21 (stereo not given) ?
GALR2 agonist: -1.4; HSV replic up: inactive; RGS16-Gao: 98; PKD1 inh: -5; HSV replic up primary fold: 1.2

How did Cc1cc(OCc2ccc(F)cc2)nc(-c2ccccc2O)n1 do in these assays?
GALR2 agonist: -0.9; HSV replic up: inactive; RGS16-Gao: 98; PKD1 inh: 0; INS promoter inh: -15; INS promoter inh cell count: 68; HSV replic up primary fold: 0.84

How did CC(CC(=O)NC1CCSC1=O)c1ccccc1 (stereo not given) do in these assays?
GALR2 agonist: 0.3; HSV replic up: inactive; RGS16-Gao: 109; PKD1 inh: -2; INS promoter inh: -34; INS promoter inh cell count: 231; HSV replic up primary fold: 0.98

Results for Nc1sc2c(c1C(=O)NC1CCS(=O)(=O)C1)CCC2 (stereo not given) ?
GALR2 agonist: -3.1; HSV replic up: inactive; RGS16-Gao: 91; PKD1 inh: 3; INS promoter inh: 15; INS promoter inh cell count: 102; HSV replic up primary fold: 1.1

What do the screens show for `N=C1/C(=C\c2ccc(SCc3ccccc3)o2)C(=O)N=C2SC(CC(=O)N3CCOCC3)=NN12`?
HSV replic up: inactive; RGS16-Gao: 106; HSV replic up primary fold: 0.92

Results for COC(=O)c1c(-c2ccc(Br)cc2)csc1NC(=O)Cc1ccc(OC)c(OC)c1 ?
GALR2 agonist: -1.6; HSV replic up: inactive; RGS16-Gao: 102; PKD1 inh: 1; INS promoter inh: 25; INS promoter inh cell count: 82; HSV replic up primary fold: 0.87

How did COc1cccc(-c2nnc(NC(=O)c3ccc(S(=O)(=O)N(CC(C)C)CC(C)C)cc3)o2)c1 do in these assays?
GALR2 agonist: -1.9; RGS16-Gao: 96; PKD1 inh: -7

What do the screens show for `COc1cccc(NC(=O)CSc2ccc3nnc(-c4ccncc4)n3n2)c1`?
GALR2 agonist: -3.5; HSV replic up: inactive; RGS16-Gao: 102; PKD1 inh: -15; HSV replic up primary fold: 0.85

Results for COc1cccc(N(C(=O)c2ccco2)C(C(=O)NC2CCCC2)c2ccc(N(C)C)cc2)c1 (stereo not given) ?
GALR2 agonist: -2.6; HSV replic up: inactive; RGS16-Gao: 99; PKD1 inh: -9; INS promoter inh: -21; INS promoter inh cell count: 96; HSV replic up primary fold: 1

What do the screens show for `CCOC(=O)c1cnc2c(cnn2C)c1Cl`?
HSV replic up: inactive; RGS16-Gao: 98; PKD1 inh: -1; HSV replic up primary fold: 0.81

What do the screens show for `Clc1ccccc1CN1CCN(/N=C/C=C\c2ccco2)CC1`?
HSV replic up: inactive; RGS16-Gao: 101; PKD1 inh: 2; HSV replic up primary fold: 1

4 entries already listed, arranged by molecular weight, rising.
What do the screens show for `CCOC(=O)c1cnc2c(cnn2C)c1Cl`?
HSV replic up: inactive; RGS16-Gao: 98; PKD1 inh: -1; HSV replic up primary fold: 0.81

What do the screens show for `COc1cccc(NC(=O)CSc2ccc3nnc(-c4ccncc4)n3n2)c1`?
GALR2 agonist: -3.5; HSV replic up: inactive; RGS16-Gao: 102; PKD1 inh: -15; HSV replic up primary fold: 0.85

Results for CC(Sc1nnc(-c2ccccc2)c(-c2ccccc2)n1)C(=O)N1CCc2ccccc21 (stereo not given) ?
GALR2 agonist: -1.4; HSV replic up: inactive; RGS16-Gao: 98; PKD1 inh: -5; HSV replic up primary fold: 1.2

How did COc1cccc(-c2nnc(NC(=O)c3ccc(S(=O)(=O)N(CC(C)C)CC(C)C)cc3)o2)c1 do in these assays?
GALR2 agonist: -1.9; RGS16-Gao: 96; PKD1 inh: -7

Remaining list, next part.
What do the screens show for `CCn1c(N)c(C(=O)NCc2cccnc2)sc1=S`?
GALR2 agonist: -1.0; HSV replic up: inactive; RGS16-Gao: 105; PKD1 inh: 2; INS promoter inh: 50; INS promoter inh cell count: 175; HSV replic up primary fold: 0.99

What do the screens show for `CCc1ccc2c(c1)C(c1ccc([N+](=O)[O-])cc1)=NNC(c1ccc(F)cc1)=N2`?
GALR2 agonist: -1.2; HSV replic up: inactive; RGS16-Gao: 100; PKD1 inh: -7; INS promoter inh: -6; INS promoter inh cell count: 65; HSV replic up primary fold: 0.94

Results for COc1ccc(OCC(O)CNC(=O)c2ccc(OC)cc2)cc1 (stereo not given) ?
HSV replic up: inactive; RGS16-Gao: 98; PKD1 inh: -1; HSV replic up primary fold: 1.1

What do the screens show for `Cc1ccc2[nH]nc(C(=O)N3CCCC(C(=O)c4ccc(Cl)cc4)C3)c2c1` (stereo not given)?
HSV replic up: inactive; RGS16-Gao: 101; PKD1 inh: -2; HSV replic up primary fold: 1.1

Results for Cc1cc(C(=O)C(=O)NC(C)C)c(C)n1-c1ccc([N+](=O)[O-])cc1 ?
GALR2 agonist: -1.2; HSV replic up: inactive; RGS16-Gao: 101; PKD1 inh: -3; INS promoter inh: 11; INS promoter inh cell count: 137; HSV replic up primary fold: 0.99

Results for COc1cccc(-c2ccc(SCC(=O)N3CCN(c4ccccc4)CC3)nn2)c1 ?
HSV replic up: inactive; RGS16-Gao: 89; PKD1 inh: 1; HSV replic up primary fold: 1

How did C=CCNC(=S)Nc1ccc(Br)cc1F do in these assays?
GALR2 agonist: 0.0; HSV replic up: inactive; RGS16-Gao: 104; PKD1 inh: 6; INS promoter inh: 17; INS promoter inh cell count: 120; HSV replic up primary fold: 0.99

Results for Cc1ccc(/C(N)=N/OC(=O)c2cccs2)cc1 ?
GALR2 agonist: -0.4; HSV replic up: inactive; RGS16-Gao: 102; PKD1 inh: -2; HSV replic up primary fold: 1

How did COc1ccc(C(O)c2nccn2Cc2ccccc2)cc1 (stereo not given) do in these assays?
GALR2 agonist: -1.7; HSV replic up: inactive; RGS16-Gao: 105; PKD1 inh: 12; INS promoter inh: 27; INS promoter inh cell count: 73; HSV replic up primary fold: 1.1

Results for CCC(NC(=O)CCCc1ccccc1)c1ccccc1 (stereo not given) ?
GALR2 agonist: -2.0; HSV replic up: inactive; RGS16-Gao: 109; PKD1 inh: 0; INS promoter inh: 43; INS promoter inh cell count: 101; HSV replic up primary fold: 0.97

What do the screens show for `S=c1[nH]nc(-c2ccco2)n1/N=C/C(Cl)=C/c1ccccc1`?
HSV replic up: inactive; RGS16-Gao: 100; HSV replic up primary fold: 0.91

Results for COc1cc(NC(=O)c2cccc3c2C(=O)N(Cc2cccnc2)C3)cc(OC)c1OC ?
GALR2 agonist: -0.8; HSV replic up: inactive; RGS16-Gao: 101; PKD1 inh: -14; HSV replic up primary fold: 1

Results for Cc1ccc(CS(=O)(=O)c2ncn[nH]2)cc1 ?
HSV replic up: inactive; RGS16-Gao: 105; PKD1 inh: 0; INS promoter inh: -10; INS promoter inh cell count: 97; HSV replic up primary fold: 0.97

Results for CCN1C(=O)/C(=C\c2cccs2)C(C(=O)OC)=C1C ?
GALR2 agonist: 0.1; HSV replic up: inactive; RGS16-Gao: 100; PKD1 inh: -4; INS promoter inh: inactive; INS promoter inh cell count: 48; HSV replic up primary fold: 0.76

What do the screens show for `CCCNC(=O)COC(=O)c1ccc(N2CCCC2)c([N+](=O)[O-])c1`?
HSV replic up: inactive; RGS16-Gao: 109; PKD1 inh: 0; INS promoter inh: 19; INS promoter inh cell count: 65; HSV replic up primary fold: 0.91
